# Source: PubChem BioAssay
# AmpC inh no det: Promiscuous and Specific Inhibitors of AmpC Beta-Lactamase (assay without detergent). Potency, µM (highest dose often 28.7 µM), for the others: at the highest dose activity change, negative = inhibition. P00811. AID 585, 2007. AmpC nitrocefin hydrolysis, absorbance 480 nm, no detergent; potencies from a single point are estimates. hit rate 1.8% among 71,000; active = falling curve, for most hits resting on a single point; inconclusive = weak or doubtful change; inactive = flat or rising curve; note: % of control where 0% means no effect; about half of the hits show no inhibition at the top dose; a quarter of the inactives give rising signals
# Target sequence (P00811 whole entry, looked up): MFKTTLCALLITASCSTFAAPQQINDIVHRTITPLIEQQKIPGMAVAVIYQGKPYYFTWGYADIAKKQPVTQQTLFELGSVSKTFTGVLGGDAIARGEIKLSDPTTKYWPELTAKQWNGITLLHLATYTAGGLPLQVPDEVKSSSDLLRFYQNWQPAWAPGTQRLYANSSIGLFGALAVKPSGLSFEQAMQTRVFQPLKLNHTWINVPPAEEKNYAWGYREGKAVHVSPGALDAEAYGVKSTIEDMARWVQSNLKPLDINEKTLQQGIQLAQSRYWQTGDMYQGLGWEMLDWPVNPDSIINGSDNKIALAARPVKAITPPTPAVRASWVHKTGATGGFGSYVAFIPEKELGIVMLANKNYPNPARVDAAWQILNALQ
#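 AmpC in 20 mM phosphate buffer pH 7.0 was preincubated 15 min at room temperature with compounds. Nitrocefin (800 uM stock) was then added and hydrolysis followed at 480 nm every 20 s for 4 min.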
# * marks the source's active call; other numbers are inactive results; ? = inconclusive; & = joins results of further samples; [ ] = remark or other dose. Potency is the fitted concentration of half-maximal effect. Some of the compounds tested; count on the stated rates, not on these rows.
SMILES,AmpC inh no det
C[C@@H](C(=O)NCc1cccc2ccccc12)[C@H]1C[C@]1(C)[C@H](NC(=O)OCc1ccccc1)c1ccccc1,-1%
O=C1c2ccccc2C(=O)N1Cc1nc(-c2ccccn2)no1,1%
CCCCCCC(C)(C)c1ccc([C@@H]2C[C@H](O)CC[C@@H]2CCCO)c(O)c1,172%
COc1ccccc1C(=O)Nc1ccc(S(=O)(=O)N2CCOCC2)cc1,32%
CN(C)S(=O)(=O)N1CCN(CC(O)COc2ccc(C(=O)c3ccccc3)cc2)CC1 (stereo unspecified),110%
COc1ccc(-n2nnnc2SCC(=O)c2cc3ccccc3o2)cc1,?
COc1ccc(CNC(=O)C(NS(=O)(=O)c2ccc3c(c2)CCCN3C(C)=O)C(C)C)cc1 (stereo unspecified),26%
NNC(=O)CCc1ccc2ccc3ccccc3c2c1,9%[5.75 µM]
c1ccc(-c2cccc(N3CC[C@@]4(CCCNC4)C3)c2)cc1,?
CC(C)C(c1nnnn1CCc1ccccc1)N1CCOCC1 (stereo unspecified),6%
Cc1nc(N2CCOCC2)c2nc(-c3ccccc3)n(CCN3CCOCC3)c2n1,19%
COc1ccc(C(=O)N2CCN(S(=O)(=O)c3ccccc3)CC2)c(OC)c1,10%
Cc1noc(/C=C/N(C)C)c1S(=O)(=O)N1CCCC(C(=O)NCc2ccc(Cl)cc2)C1 (stereo unspecified),60%
CCCn1nnc(NC(=O)c2cc(Br)ccc2OC)n1,0%
S=c1[nH]ncc2ccccc12,-8%
CC(C)(C)c1ccc(C(=O)Nc2nonc2-c2nc3ccccc3[nH]2)cc1,-13%
O=C(O)c1ccc2c(c1)N(Cc1ccccc1)C(=O)c1ccccc1S2=O (stereo unspecified),-1%
O=c1nc2n(c3sc4c(c13)CCC4)Cc1ccccc1-2,-1%
CCC(=O)/C=C1\Sc2ccc(OC)cc2N1CCO,-6%
CC(Sc1nc(-c2ccccc2)cc(C(F)(F)F)n1)C(=O)NCCN1CCOCC1 (stereo unspecified),115%
CCOc1ccc(-c2cc(CCCC(=O)Nc3cccc(OC)c3)no2)cc1,?
COc1ccc(CCNC(=O)Cn2c(-c3nonc3N)nc3ccccc32)cc1OC,8%
Cc1cccc(N2CCN(C(=O)c3cc4ccccc4oc3=O)CC2)c1C,45%
COc1cc(C2=NOC(C(=O)N3CCOCC3)C2)cc(OC)c1OC (stereo unspecified),21%
Cc1ccc(-c2csc3nc(=O)c(C)nn23)cc1,-3%
O=C(c1ccc(F)cc1)C1CCN(C(=O)c2ccncc2)CC1,-3%
Nc1c(C(=O)NCc2ccccc2)nnn1Cc1ccc(F)cc1,-24%
O=C(Nc1ccccn1)C1CCN(S(=O)(=O)c2cccc3nonc23)CC1,8%
CC(OC(=O)c1ccccc1NCc1ccco1)C(=O)Nc1ncc(Cl)cc1Cl (stereo unspecified),-9%
CCN(C1CCCCC1)S(=O)(=O)c1ccc(OC)c(C)c1,21%
Cc1cc(C)nc(NC2=NC3CCCCC3N2)n1 (stereo unspecified),-5%
CCN(CC)C(=O)N[C@@H]1C[C@H]2c3cccc4[nH]cc(c34)C[C@@H]2N(C)C1,7%&4%[12.8 µM]
C[C@@](Br)(C(=O)O)[C@H](Br)C(=O)O,-5%[5.75 µM]
COCCn1c(SCC(=O)Nc2nnc(C)s2)nnc1-c1ccncc1,-3%
c1nc(N2CCNCC2)c2cc(-c3ccc4c(c3)OCO4)ccc2n1,15%
CC1Cc2ccccc2N1C(=O)COC(=O)Cn1nnc(-c2ccccc2)n1 (stereo unspecified),35%
CN1CCc2c(sc3c2c(=O)n(-c2cccc(Cl)c2)c2nncn32)C1,16%
Nc1ncnc2c1ncn2CCOc1ccccc1,-5%
O=C(CSc1nc(-c2ccco2)cc(C(F)(F)F)n1)NCC1CCCO1 (stereo unspecified),50%
O=C(CSc1nnnn1-c1ccc2c(c1)CCC2)NCc1cccs1,9%
CC1CCCCN1CCNC(=O)c1cc2c(=O)n(C)c3ccccc3c2n1C (stereo unspecified),38%
O=c1c2ccccc2nc2c3ccccc3c3nncn3n12,-1%
CCCCC(CC)CN (stereo unspecified),5%&-5%
O=C(C1CC1)N1CCc2cc(S(=O)(=O)NCCC3=CCCCC3)ccc21,18%
C#CCOC(=O)c1ccccc1C(=O)n1nnc2ccccc21,-4%
CC(C)OC(=O)CN1C(=O)C(C)(C)Oc2ccc(C(=O)NC(C)(C)C)cc21,56%
O=C(Nc1ccccc1)OCc1ccccn1,-4%
CC1Cc2cc(C(=O)O)ccc2O1 (stereo unspecified),-20%
COc1ccc(-n2[nH]c(C)cc2=O)cc1,-4%
CCOC(=O)c1cc(-c2ccc3c(c2)OCCO3)nc2c1c(C)nn2CCC#N,64%
Cc1ccc2c(c1)NC(=O)C(CC(=O)NCCCN1CCN(C3CCCCC3)CC1)O2 (stereo unspecified),8%
c1ccc2ncccc2c1,0%
O=C(NCCc1ccc2c(c1)OCCO2)c1cc2ccccc2o1,-6%
COc1ccc(-n2c(/C=C(\C)O)nc(=O)c3c(C)cc(C)nc32)cc1,53%
CCCn1nnc(NCc2ccc(OCc3cccs3)c(OC)c2)n1,33%
CCC(Oc1ccccc1)C(=O)Nc1ccccc1OC (stereo unspecified),-1%
N#CC1=C(N)Oc2nc(-c3ccccc3)[nH]c2C1c1cccnc1 (stereo unspecified),-10%
CCN1CCN(CC(=O)Nc2c(C(=O)OC)[nH]c3cccc(Cl)c23)CC1,80%
Cc1ccc(C(=O)CN2CCC(NC(=O)C3CCCCC3)CC2)cc1,67%
COc1ccc(C2CC(C(F)(F)F)n3nc(CO)c(Cl)c3N2)cc1OC (stereo unspecified),24%

# Overlap with the part before: two entries; new compounds follow.
SMILES,AmpC inh no det
Cc1ccc(C(=O)CN2CCC(NC(=O)C3CCCCC3)CC2)cc1,67%
COc1ccc(C2CC(C(F)(F)F)n3nc(CO)c(Cl)c3N2)cc1OC (stereo unspecified),24%
CCN(CC)CCc1nc(-c2ccccc2)no1,-25%[12.8 µM]
CC(=O)Nc1ccc(S(=O)(=O)NC2=NCN(CCOC(=O)c3ccccc3)CN2)cc1,-1%
O=C(CN(C(=O)CCC(=O)Nc1nccs1)c1ccc(F)c(Cl)c1)NCc1ccco1,34%
COc1ccccc1NC(=O)Cc1noc(CSc2nnc(C)s2)n1,3%
CC(C)Sc1nnc(Cn2c(=O)sc3ccccc32)n1-c1ccccc1,72%
O=C(NC1CC1)c1ccc(COc2ccc(F)cc2)o1,3%
Cc1cc(C(=O)OCC(=O)NCc2ccco2)c(C)n1-c1ccccc1,20%
c1ccc2c(c1)CCCC2,11%
COC(=O)[C@@]1(Cc2ccc(F)cc2)[C@@H]2[C@@H](CC(=O)[C@H]2CC(=O)C(=O)N(C)C)CN1C(=O)c1ccccc1,148%
O=C(NCCN1C(=O)C2C3C=CC(C3)C2C1=O)N1CCCCC1 (stereo unspecified),4µM*[single pt active]
CN(C)S(=O)(=O)N1CCN(S(=O)(=O)N(C)C)CC1,-6%
CCC(CC)C(=O)Nc1cc(OC)c(OC)cc1C(=O)O,-2%
COc1cc(NS(C)(=O)=O)c(OC)cc1NC(=O)c1cccc(F)c1,9%
Cc1cccc(OCc2nc(-c3nonc3N)no2)c1C,-12%
COc1cccc(CNc2nc3ccccc3n2CCN2CCCCC2)c1OC,-9%
O=C(Nc1ccc2snnc2c1)N1CCN(c2ccccc2)CC1,-18%
COc1ccc(NC(=O)Nc2ccccc2C(N)=O)cc1OC,0%
Cc1cc(C)cc(NC(=O)C2CCN(S(=O)(=O)c3c(C)n[nH]c3C)CC2)c1,11%
O=C(O)C1=CC(=C(c2ccc(O)c(C(=O)O)c2)c2ccc(O)c(C(=O)O)c2)C=CC1=O,7.9µM*
CCNc1nc(NC(C)(C)C)nc(SC(C(C)=O)C(C)=O)n1,21%
COc1ccc(-c2nc(CS(=O)CC(=O)NCc3ccc(Cl)cc3)c(C)o2)cc1 (stereo unspecified),150%
CCCC1=C(C(=O)OCC)C2(C(=O)Nc3ccccc32)C(C#N)=C(N)O1 (stereo unspecified),18%
CCC(c1nnnn1CCOC)N1CCN(Cc2ccccc2OC)CC1 (stereo unspecified),10%
CC1CCc2nc(NCCO)nc(C(F)(F)F)c2C1 (stereo unspecified),28%
CS(=O)(=O)Nc1cccc(-c2ccc3ncnc(NC4CCNCC4)c3c2)c1,-11%
Cn1c(SCC(=O)N2CCc3ccccc32)nnc1C1CC1,1%
CCOC(=O)N1CCN(C(=O)c2cccc(NC3=NC4CS(=O)(=O)CC4S3)c2)CC1 (stereo unspecified),-3%
O=S(=O)(O)/C(=C\c1ccccc1)c1ccccc1 (tested in a mixture with another compound),9%[5.75 µM]
Cc1ccc(C(=O)N2CCN(c3ccc(Cl)cc3)CC2)cc1,48%
NCCS(=O)O,5%&6%
Cc1nc(NC2CCCCC2)c2nc(-c3ccccc3)n(CCN3CCCC3)c2n1,90%
Cc1ccc(CCNC(=O)C2CCN(S(=O)(=O)c3cccc4nonc34)CC2)cc1,10%
CC1=C(C(=O)OCC2CCCO2)C(c2ccccc2)NC(=O)N1 (stereo unspecified),6%
COc1ccc(CCn2c(O)c(C=NCCCO)c(=O)[nH]c2=O)cc1OC,-1%
CC(C)(C)C(=O)OCOC(=O)[C@@H]1N2C(=O)[C@@H](N=CN3CCCCCC3)[C@H]2SC1(C)C,23%[12.8 µM]
CC1CCN(S(=O)(=O)c2ccc(Cl)cc2Br)CC1,2%
O=c1cc(CNCCCO)c2ccccc2[nH]1,-9%
Nn1c(=O)c2ccccc2n2c(SCc3ccccc3)nnc12,8%
O=C(OCc1nnc(-c2ccccc2)o1)c1cc(S(=O)(=O)N2CCOCC2)c(Cl)cc1Cl,68%
COc1cc(CN2CCN(C(=O)COc3ccccc3)CC2)cc(OC)c1OC,52%
O=P(O)(O)COc1ccccc1P(=O)(c1ccccc1)c1ccccc1,-19%
COCn1c(COc2ccccc2)nc2ccccc21,6%
Cc1cc(N2CCN(C(c3ccccc3)c3ccccc3)CC2)n2ncnc2n1,121%
O=C(NCC1CCCO1)c1cccc(NC(=O)c2ccco2)c1 (stereo unspecified),-6%
CCOc1cccc(/C(O)=C2/C(=O)C(=O)N(CCOC)C2c2ccco2)c1 (stereo unspecified),-15%
COCCNC(=O)C1CC(c2cccc(OC)c2)=NO1 (stereo unspecified),8%
CCCOc1ccccc1C1CC(=O)Nc2cc3c(cc21)OCO3 (stereo unspecified),-5%
CCOc1cc(CN2CCN(c3cccc(C(F)(F)F)c3)CC2)ccc1O,48%
COc1ccc2cc(C#N)c(N3CCN(Cc4nnnn4CCC(C)C)CC3)nc2c1,91%
CC(C)OC(=O)CSc1nc2ccccc2s1,0%
COc1cc(OC)c(C2=NOC(C(=O)NCc3ccc4c(c3)OCO4)C2)cc1Cl (stereo unspecified),53%
O=C(Nc1cc(C(=O)N2CCOCC2)cc(C(=O)N2CCOCC2)c1)c1cc(F)c(F)cc1Cl,15%
O=C(NCc1ccccc1)N1CCN(c2ccc(Cl)c(Cl)c2)CC1,-4%
CCOC(=O)c1c(NC(=O)CSc2nnc(CNc3ccc(OC)cc3)n2C)sc(C)c1C,102%
CCCCCC1=C2CNC(CC(C)C)(C(=O)OC)C=C2C(C)C1=O (stereo unspecified),74%
O=C(Nc1ccccc1OC(F)F)c1ccc(F)cc1,-2%
Cn1cccc1Cc1nnc(SCC(=O)Nc2ccccc2F)n1-c1ccc(F)cc1,93%
CCOC(=O)C1CCN(C(=O)CN(c2cccc(C(F)(F)F)c2)S(C)(=O)=O)CC1,53%
Nn1c(SCC(=O)Nc2ccccc2F)nnc1-c1cccnc1,-14%
O=C(COC(=O)C1CC1)Nc1ccc(Oc2ccccc2)cc1,4%

# The list goes on.
SMILES,AmpC inh no det
CN(C)c1ccc(N=Nc2ccccc2)cc1,-4%
O=C(CNc1ccccc1)Nc1ccc(F)cc1,-6%
Nc1ccn([C@H]2O[C@@H](COP(=O)(O)O)[C@@H](O)[C@H]2O)c(=O)n1,5%[5.75 µM]
COc1cc(NC(=O)COc2cccc(OC)c2)cc(OC)c1,10%
Cc1occc1C(=O)NCc1ccccn1,-2%
CCOC(=O)CNC(=O)c1cc(C)oc1C,16%
COc1ccccc1CNc1ccnc(-c2ccccc2C(F)(F)F)n1,22%
CCCCCCn1ccc(=N)cc1,-12%
COc1cccc(NS(=O)(=O)c2cn(C)c(=O)n(C)c2=O)c1,63%
Cc1ccc(OCCCn2c(CO)nc3ccccc32)cc1,66%

# 19 entries from above, with bars between the fields:
SMILES | AmpC inh no det
COc1ccc2cc(C#N)c(N3CCN(Cc4nnnn4CCC(C)C)CC3)nc2c1 | 91%
CC(C)OC(=O)CSc1nc2ccccc2s1 | 0%
COc1cc(OC)c(C2=NOC(C(=O)NCc3ccc4c(c3)OCO4)C2)cc1Cl (stereo unspecified) | 53%
O=C(Nc1cc(C(=O)N2CCOCC2)cc(C(=O)N2CCOCC2)c1)c1cc(F)c(F)cc1Cl | 15%
O=C(NCc1ccccc1)N1CCN(c2ccc(Cl)c(Cl)c2)CC1 | -4%
CCOC(=O)c1c(NC(=O)CSc2nnc(CNc3ccc(OC)cc3)n2C)sc(C)c1C | 102%
CCCCCC1=C2CNC(CC(C)C)(C(=O)OC)C=C2C(C)C1=O (stereo unspecified) | 74%
O=C(Nc1ccccc1OC(F)F)c1ccc(F)cc1 | -2%
Cn1cccc1Cc1nnc(SCC(=O)Nc2ccccc2F)n1-c1ccc(F)cc1 | 93%
CCOC(=O)C1CCN(C(=O)CN(c2cccc(C(F)(F)F)c2)S(C)(=O)=O)CC1 | 53%
Nn1c(SCC(=O)Nc2ccccc2F)nnc1-c1cccnc1 | -14%
O=C(COC(=O)C1CC1)Nc1ccc(Oc2ccccc2)cc1 | 4%
CN(C)c1ccc(N=Nc2ccccc2)cc1 | -4%
O=C(CNc1ccccc1)Nc1ccc(F)cc1 | -6%
Nc1ccn([C@H]2O[C@@H](COP(=O)(O)O)[C@@H](O)[C@H]2O)c(=O)n1 | 5%[5.75 µM]
COc1cc(NC(=O)COc2cccc(OC)c2)cc(OC)c1 | 10%
Cc1occc1C(=O)NCc1ccccn1 | -2%
CCOC(=O)CNC(=O)c1cc(C)oc1C | 16%
COc1ccccc1CNc1ccnc(-c2ccccc2C(F)(F)F)n1 | 22%
